# Assay outcomes: PubChem BioAssay, National Center for Advancing Translational Sciences (NCATS)
# StopGo FLuc: Primary qHTS Assay for Foot and Mouth Disease Virus Antivirals against NCGC Sytravon and CBC Compound Libraries: Firefly Luciferase Signal | HEK cells with a luciferase reporter of 2A StopGo recoding | Potency, µM (doses to about 57.5 µM), for the others: top-dose signal change, negative = less light | actives 0.23% (n = 120,000); active = well fitted falling curve with a large enough effect; inconclusive = small, poorly fitted or top-dose-only effect; inactive = no such curve, though single readings can be large or run the other way; note: nearly all actives have a fitted effect of over 60% in size; overnight with compound
# 2A Renilla: Primary qHTS Assay for Foot and Mouth Disease Virus Antivirals against NCGC Sytravon and CBC Compound Libraries: Renilla Luciferase Signal | actives 0.32% (n = 120,000) | Potency, µM (top dose mostly 57.5 µM), for inactives: top-dose signal change, negative = less light | HEK cells with a luciferase reporter of 2A StopGo recoding | AID 1745857, 2022; active means well fitted falling curve with a large enough effect; inconclusive means small, poorly fitted or top-dose-only effect; inactive means no such curve, though single readings can be large or run the other way; note: nearly all actives have a fitted effect of over 55% in size; overnight with compound
# Numbers without * were called inactive; ? = inconclusive; [ ] = remark or other dose. % is set by controls: 0 for no effect and ±100 for the full control effect; potency is the fitted concentration of half-maximal effect. A portion of the library; rates above refer to the full screens.
molecule | 2A Renilla | StopGo FLuc
Cc1ccc(SCCC(=O)Nc2c(C)nn(C)c2C)cc1C | ? | -57%
CC(C)(C)C1CCC(=NNC(=O)Cc2ccccc2)CC1 (configuration not stated) | -4% | 25%
COc1ccc(CCNC(=O)c2c(O)nc3c(C)cccn3c2=O)cc1OC | -13% | -18%
CC(C)(C)c1ccc2c(c1)Oc1cc(C(C)(C)C)ccc1OCCOCCOCCO2 | ? | ?
CC12CCC(C/C1=N\NC(N)=S)C2(C)C (configuration not stated) | -5% | 0%
COc1ccc2cc(C(=O)NCC3CCCO3)[nH]c2c1 (configuration not stated) | 83%[activator] | 213%[activator]
O=S(=O)(c1ccc(Cl)cc1)c1nnn2c1nc(NC1CCCCC1)c1sccc12 | 75%[activator] | 0%
COCCNC(=O)c1nn(-c2ccc(C)cc2)c(=O)c2c1c1ccccc1n2C | -12% | 1%
O=C(CCc1ncc(-c2ccc(F)cc2F)o1)NCc1ccc(C(=O)N2CCCC2)cc1 | 11% | 0%
Cc1ccc(NC(=O)Cn2c(=O)ccc3cc(S(=O)(=O)N4CCC(C)CC4)ccc32)cc1Cl | -5% | 1%
COc1ccccc1CNc1nc2nc(C)c(Cl)c(C)n2n1 | -6% | 0%
Cc1cc(C(=O)N(Cc2ccco2)C2CC2)sc1C | 17% | 22%
CC(=O)NNC(=O)COC(=O)c1ccccc1Sc1ccccc1C#N | 7% | 0%
O=C1C(CCS(=O)c2ccccc2)C(=O)N(c2ccccc2)N1c1ccccc1 (configuration not stated) | -10% | -15%
O=C(NCC(O)COc1ccc(C(F)(F)F)cc1)C1CCC1 (configuration not stated) | 0% | 18%
Cc1cc(C)cc(NC(=O)C2CC(=O)N(C(C)(C)C)C2)c1 (configuration not stated) | 4% | 11%
COc1ccc(Cl)cc1-n1nnc(C(=O)Nc2cccc(C(F)(F)F)c2)c1C | 2% | 18%
O=C(Cn1ccc2ccc(Cl)cc21)Nc1ccc2c(c1)OCO2 | 182%[activator] | 52%[activator]
CCOCCCNC(N)=S | 3% | 2%
C[C@@H](NC(=O)CN(c1ccccc1)S(=O)(=O)N(C)C)c1ccccc1 | -3% | -10%
O=C(NCc1ccccn1)c1ccc(C2CCCCC2)cc1 | 8% | 0%
CC(=O)Oc1ccc2c(C)c(CC(=O)NC3CCCCCC3)c(=O)oc2c1OC(C)=O | -28% | 28%
COc1ccc2c(C)cc(SCC(=O)N3CCCCC3)nc2c1 | 19% | 4%
C=C(C)CN1CCN(c2nc3c(c(=O)[nH]c(=O)n3C)n2Cc2ccc(C)cc2)CC1 | 1% | 3%
CCc1ccc(CN(C(=O)c2cc(=O)c3ccc(C)cc3o2)C2CCS(=O)(=O)C2)cc1 (configuration not stated) | -4% | -20%
CC1CCCC(NC(=O)c2ccc3c(c2)CCC3)C1C (configuration not stated) | 133%[activator] | 191%[activator]
O=C(NC1CCCCC1)c1nc[nH]c1C(=O)NCC1CC1 | 17% | 0%
COc1ccc2oc(=O)c(-c3csc(Nc4ccc(C)cc4)n3)cc2c1 | -9% | 16%
CCCCC(=O)Nc1cc(-c2cn3cccnc3n2)ccc1C | -11% | -11%
CN(C)/C=C/C=C1C(=O)CC(C)(C)CC1=O | 3% | 2%
Cc1cc(C)c2c(=O)cc(C(=O)Nc3ccc(C)c(Cl)c3)oc2c1 | -8% | -3%
CCCCNCCCN1CCOCC1 | 3% | 17%
Cc1ccc(C)c(NC(=O)CC2(C(=O)O)CCCCC2)c1 | 11% | 6%
O=C(NCc1ccccc1)C1CCN(S(=O)(=O)c2ccc(OC(F)(F)F)cc2)CC1 | -2% | -14%
CCC(Oc1ccccc1F)C(=O)Nc1c(Cl)cccc1Cl (configuration not stated) | -4% | -3%
O=C(O)CCC(NS(=O)(=O)c1ccc(Cl)cc1)C(=O)O (configuration not stated) | -3%[1.06 µM] | 16%
CC(C)c1ccc(NC(=O)N2c3ccccc3Sc3ccccc32)cc1 | -18% | -3%
Nc1c(C(=O)Nc2ccc(F)c(Cl)c2)sc2nc3c(cc12)N1CCC3CC1 | ? | -18%
O=C(CC1N=C2c3ccccc3N=C(SCc3ccc(F)cc3)N2C1=O)NCc1ccc2c(c1)OCO2 (configuration not stated) | 3% | 30%[activator]
Cc1ccc(-n2nc3c(N4CCC(C(=O)NCCC(C)C)CC4)nnc(C)c3c2C)cc1 | -15% | 1%
CCOC(=O)C(CC)Sc1nnc2[nH]c(=O)cc(C)n12 (configuration not stated) | 11% | 1%
O=C(OCC(=O)N1CCCC1=O)c1cc(=O)c2cc(Cl)ccc2o1 | -13% | -10%
CC(=O)NCc1cccs1 | 27% | 13%
O=C(CSc1nc2ccccc2s1)Nc1ccc(F)cc1F | -2% | -8%
COC(=O)CSc1nc(-c2ccc(F)cc2)cc(C(F)(F)F)n1 | 7% | 27%
Cc1cc(C)n(CC(=O)Nc2ccc(F)c(F)c2)c(=O)c1C#N | 237%[activator] | 198%[activator]
CC(Sc1ncnc2nc[nH]c12)c1ccccc1 (configuration not stated) | -10% | 83%[activator]
COc1ccccc1-c1nc(C#N)c(NCc2ccc(F)cc2)o1 | 90%[activator] | 33%[activator]
C=CCOc1cccc(NC(=O)c2cccc(OCC)c2)c1 | 24% | 148%[activator]
Cc1ccc(-n2c(C)c(C)c3c2ncn2nc(-c4ccncc4)nc32)cc1 | 3% | 23%
CC1=C(c2ccc(C)cc2)S(=O)(=O)NC1=NCCCN1CCN(c2cc(C)ccc2C)CC1 | 0% | -28%
CN1CC(=O)NC1=N | -10% | -8%[11.5 µM]
CCc1ccc(N2CC(C)Cn3c2nc2c3c(=O)[nH]c(=O)n2C)cc1 (configuration not stated) | -1% | -11%
CCCN1CCc2nc(N3CCN(c4ncccn4)CC3)ncc2C1 | -11% | 37%[activator]
Cc1cc(=O)oc2c3c(ccc12)OCN(Cc1ccc(Cl)cc1)C3 | -4% | -10%
COC(=O)c1ccc(/C=N/OCc2ccc(C(=O)OC)cc2)cc1 | -2% | 7%
Cc1ccc(C)c(N=Cc2ccccc2[N+](=O)[O-])c1 | -6% | 12%
Cc1ccc(C(=O)/C=C/c2ccc3ccccc3c2)o1 | 4%[1.06 µM] | 106%[activator]
C[C@]12CC[C@H]3[C@@H](CCC4=CC(=O)CC[C@@H]43)[C@@H]1CC[C@@H]2O | -5% | -12%
C=CCN(CC(F)(F)F)C(=O)c1ccc(NC(=O)NC2CC2)cc1 | -11% | -5%

# (next part)
molecule | 2A Renilla | StopGo FLuc
CCOC(=O)c1c(C)[nH]c(C(=O)OC)c1C | -3% | 32%[activator]
COc1ccc(-c2nn(-c3cccc(F)c3)c3c2cnc2cc(OC)c(OC)cc23)cc1 | -17% | -14%
COc1cc(NC(=O)CSc2ncc3c(n2)-c2ccc(Cl)cc2N(Cc2ccccc2)S3(=O)=O)cc(OC)c1 | 3% | -11%
Cc1ccc(C(=O)N2CCN(Cc3ccc(F)cc3)CC2)cc1C | ? | ?
Cc1oc(-c2nc(C#N)c(NCC3CCCO3)o2)cc1S(=O)(=O)N1CCCC1 (configuration not stated) | 0% | 11%
CC(=O)C1=C(c2ccc(F)cc2)N(C(C)=O)n2c(nnc2C2CCCCC2)S1 | 0% | -18%
Cc1ccc(N(C(=O)CNC(=O)c2ccccc2)C2(C(=O)NC3CCCC3)CCCCC2)cc1 | 12% | -21%
c1cc2c(cc1C1CCCN1Cc1nnnn1C1CC1)OCCO2 (configuration not stated) | 0% | 1%
COc1cccc(C2SCC(=O)Nc3c2c(C)nn3-c2ccc(C)c(Cl)c2)c1OC (configuration not stated) | -21% | -17%
COC(=O)c1ccc(C2C=C(c3ccc(Cl)cc3)Nc3nc4ccccc4n32)cc1 (configuration not stated) | 7% | 128%[activator]
NC(=O)OCC(COC(N)=O)c1ccccc1 | -4% | -9%
CCOC(=O)C(NC(=O)c1ccc(OC)cc1)(Nc1ccccc1F)C(F)(F)F (configuration not stated) | 122%[activator] | 94%[activator]
COc1ccc(NC(=O)c2ncoc2-c2ccc(C)o2)cc1Cl | 5% | 0%
CN1CCN(S(=O)(=O)c2cccc(C(=O)Nc3cccc4cccnc34)c2)CC1 | 6% | 12%
Cc1nc(-n2nc(C)c(Cc3ccc(Cl)cc3)c2C)sc1C(=O)N1CCCCC1C (configuration not stated) | -9% | 11%
COc1ccc2oc(C(=O)OCC(=O)C34CC5CC(CC(C5)C3)C4)c(C)c2c1 | 0% | 0%
COC(=O)c1ccccc1NC(=O)c1cc2nc(-c3ccc(OC)cc3)cc(C(F)(F)F)n2n1 | -10% | -5%
CSc1ccc(NC(=O)CCCc2nc(C(C)C)no2)cc1 | 4% | 10%
CSc1ccc(C)c(C(N)=O)c1 | 11% | 16%
CCNc1c(NC(=O)Cc2ccc(F)cc2)c(=O)oc2ccccc12 | 2% | -2%
CC(=O)c1ccc(OCCC(=O)OCc2ccc(C#N)cc2F)cc1 | -16% | -3%
Cc1ccc(C(=O)Nc2nc3nc(C)cc(=O)n3[nH]2)cc1 | 44%[activator] | 45%[activator]
CCOC(=O)C1=C(C)Nc2nc(SCc3cccc(C)c3)nn2C1c1cccs1 (configuration not stated) | 2% | 9%
COC(=O)CNc1ccc(C(=O)OC)cc1 | -15% | 31%
CCCOc1ccc(NC(=O)CCC)c2cccnc12 | -13% | -11%
CN(C)C(=O)Oc1ccc2cc(-c3ccccc3)c(=O)oc2c1 | 10% | 221%[activator]
COc1ccc(C(=O)Nc2ccc(-c3cc(C(F)(F)F)nn3-c3ccccc3)cc2)cc1OC | ? | ?
O=C(CNS(=O)(=O)c1cccs1)N1CCN(c2cccc(C(F)(F)F)c2)CC1 | 2% | -4%
COc1ccccc1NC(=O)c1ncoc1-c1ccc(OC)c(OC)c1 | 20% | 0%
CCn1nc(C(=O)NCc2ccc(OC)cc2)c2ccccc2c1=O | 27% | 21%
COC(=O)c1c(C)cccc1NCC(=O)NC(=O)NC1CC1 | -9% | 5%
O=C(COc1cc(Cl)cc(Cl)c1)N1CCNC1=O | 6% | 65%[activator]
CCOC(=O)CNC(=O)N1Cc2c(CC)nn(-c3ccccc3)c2-n2cccc2C1c1ccccc1 (configuration not stated) | -4% | -10%
CCc1ccccc1NC(=O)CN(C)C(=O)C1CCN(c2ccc(C#N)cn2)CC1 | -1% | 16%
NC(N)=NC(N)=Nc1ccc(Cl)cc1Cl | -11%[1.06 µM] | 0%
O=C(Cn1cc(SCc2ccc(C(F)(F)F)cc2)c2ccccc21)N1CCOCC1 | 1% | 92%[activator]
Cc1cccc(CNS(=O)(=O)c2ccc3c(c2)OCCO3)c1 | 168%[activator] | 0%
O=C(NCc1ccc2c(c1)CCN2C(=O)c1ccccc1)c1ccc(Br)o1 | -16% | -22%
O=C(Cc1c[nH]c2ccccc12)NCC(=O)N1CCN(c2ccccc2)CC1 | -23% | -17%
CCc1ccc(CNC(=O)c2c3c(nc4ccccc24)C(=O)N(C2CCCCC2)C3)cc1 | 5% | -31%
COc1ccc(N(Cc2cc(CN3CCOCC3)cs2)S(=O)(=O)c2ccccc2C)cc1 | 57%[activator] | 15%
C=CCNC(=O)Nc1cc(NC(=O)Nc2ccccc2)ccc1C | -3% | 87%[activator]
CNC(=S)c1cc(C(C)(C)C)c(O)c(C(C)(C)C)c1 | 93%[activator] | 65%[activator]
COc1ccc2nc(N3CCN(C(=O)C4CC4)CC3)sc2c1 | 14% | 111%[activator]
CCc1c(C)c(C#N)c2nc3ccccc3n2c1-n1ccnc1C | -8% | -9%
O=C(CCc1ncc(-c2c(F)cccc2F)o1)N1CCCN(Cc2ccccc2)CC1 | 0% | 5%
CCc1ccc(-n2nnc(-c3nc(-c4ccc(C)cc4)no3)c2N)cc1 | -5% | 1%
Cc1c(Cl)cccc1NC(=O)CSc1nc(=O)n(Cc2ccccn2)c2c1CCC2 | 255%[activator] | 8%
COc1cccc(C(CNCC(O)CN2CCOCC2)c2c[nH]c3ccccc23)c1OC (configuration not stated) | -6%[1.06 µM] | -11%
Cc1nnc(N2CCC(C(=O)NCc3ccc(N(C)C)cc3)CC2)c2nn(-c3ccccc3)c(C)c12 | 42%[activator] | 13%
C[C@]12CC[C@@H]3c4ccc(O)cc4CC[C@H]3[C@@H]1CCC2=O | 4% | -3%
Cc1ccc2nc(C)cc(C(=O)NC3CCC(O)CC3)c2c1 (configuration not stated) | -4% | -4%
Cc1cc(OCC(=O)Nc2ccc3[nH]ncc3c2)ccc1Cl | 5% | 33%[activator]
CC1(C)C2CC=C(/C=N/NC(=S)NCc3ccccc3)C1C2 (configuration not stated) | 63%[activator] | 32%[activator]
COC(=O)c1ccccc1NC(=O)c1cc(-c2ccc(Cl)cc2)on1 | -9% | -11%
Cc1ccc(-n2c(=O)[nH]c3sc4c(c3c2=O)CCCC4)cc1 | -3% | 2%
CCn1cc2nc(SCc3cccc(C(F)(F)F)c3)n(CCc3ccccc3)c(=O)c2n1 | -6% | 38%[activator]
CCCn1c(=O)[nH]c(=O)c2c(-c3cccc4ccccc34)ccnc21 | -3% | 4%

# 5 of the compounds above, with two lines to a compound:
# Screens in order – 2A Renilla, StopGo FLuc
CCCn1c(=O)[nH]c(=O)c2c(-c3cccc4ccccc34)ccnc21
    -3%, 4%
COc1cccc(C(CNCC(O)CN2CCOCC2)c2c[nH]c3ccccc23)c1OC (configuration not stated)
    -6%[1.06 µM], -11%
Cc1cc(OCC(=O)Nc2ccc3[nH]ncc3c2)ccc1Cl
    5%, 33%[activator]
CC1(C)C2CC=C(/C=N/NC(=S)NCc3ccccc3)C1C2 (configuration not stated)
    63%[activator], 32%[activator]
CCc1ccc(-n2nnc(-c3nc(-c4ccc(C)cc4)no3)c2N)cc1
    -5%, 1%
